MT1-MMP promoter = MT1-MMP gene expression reporter suppression – cell-based, luciferase reporter, luminescence (AID 618); MT1-MMP promoter luciferase reporter cells, luminescence; calls from a first round at 10 µM; hits with a dose series show EC50 in µM; hit rate 0.62% among 87,000;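 active = over half of the reporter light lost at 10 µM or EC50 under 50 µM; inactive = the rest and hits that failed the dose series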;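 also: actives suppress MT1-MMP promoter-driven transcription so potencies describe inhibitors; HT1080 fibrosarcoma cells; overnight exposure; toxic or luciferase-blocking compounds were not removed from the actives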
WNV NS2B-NS3 inh = WNV NS2B-NS3 proteinase inhibition | WNV NS2B-NS3 protease, fluorogenic substrate Ex360/Em465; stronger effect = lower value | P06935 | hit rate 0.18% among 65,000 | z-score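 (tested at a level between 10 and 100 µM)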;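 active = z-score at -3 or under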;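 also: score is relative to mean and spread of the compound wells of a plate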
Target sequence (P06935 1371-1501 limits assumed): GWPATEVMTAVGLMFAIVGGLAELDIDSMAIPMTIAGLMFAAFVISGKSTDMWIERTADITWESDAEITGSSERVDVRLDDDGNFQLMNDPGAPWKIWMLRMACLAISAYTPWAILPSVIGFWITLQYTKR
Target sequence (P06935 1502-1679 limits assumed): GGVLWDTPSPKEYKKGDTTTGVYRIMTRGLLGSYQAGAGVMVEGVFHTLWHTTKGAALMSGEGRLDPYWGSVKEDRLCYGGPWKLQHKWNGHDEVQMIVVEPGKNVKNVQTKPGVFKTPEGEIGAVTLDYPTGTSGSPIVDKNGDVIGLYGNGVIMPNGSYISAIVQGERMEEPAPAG
Hsc70 = small molecules displacing fluorescent ligand from Hsc70 – biochemical, fluorescence polarization, primary screen (AID 568). Hsc70 fluorescence polarization, probe displacement; higher % means a stronger effect; strong numbers were not always called active. 83,000 tested, under 10 active. displacement, % at 20 µM, or IC50 in µM where a hit was titrated;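 active = displacement above 50% without optical interference and an IC50 on retest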;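 also: ATPase domain with a fluorescein-tagged ATP probe; 0% = vehicle and 100% = excess ADP; read after one hour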
The depositor's hits bear a star; i = inactive; x = no result given; + = active, no number; & = joins results of further samples. Rows were taken by chance (roughly 0.77% active in at least one column).

SMILES	MT1-MMP promoter	WNV NS2B-NS3 inh	Hsc70
O=c1c2[nH]c3cccc(Cl)c3c2ncn1Cc1ccncc1	i	0.92	-0.4%
O=C(NCc1cccs1)C1CC(=O)N(C2CCCC2)C1 (stereo unspecified)	i	-0.48	-7.6%
CCOCCCn1c(=S)[nH]c2cc(C(=O)N3CCOCC3)ccc2c1=O	i	0.6	2.0%
Cc1ccc(CSc2nnc3nc(C)cc(C)n23)cc1	i	x	-2.1%
CCn1c(SCc2ccc(OC)cc2)nnc1-c1ccncc1	i	1.1	4.2%
Cc1sc2ncn(CC(=O)NCc3ccccn3)c(=O)c2c1S(=O)(=O)N1CCOCC1	i	x	0.4%
C=CCc1c(C)nc2c(C(=O)O)cnn2c1C	i	-0.15	-4.8%
Cc1ccc(OCc2nc(C#N)c(NCc3ccc4c(c3)OCO4)o2)cc1	i	-0.83	-1.8%
CCC(=O)NC(C)c1nc2ccccc2n1C (stereo unspecified)	i	0.009	2.4%
CC(C)NS(=O)(=O)c1ccc(OCC(N)=O)c(Cl)c1	i	-1.18	4.9%
Cc1cc(NCCNC2=CC(=O)CCC2)nc2ccccc12	i	-0.00539	-0.1%
CCCCOc1ccc(C(=O)NCCCC(=O)N2CCCCC2)cc1	i	-0.76	-4.9%
O=C(CC1CC2CCC1C2)OCC(=O)c1c[nH]c2ccccc12 (stereo unspecified)	i	x	4.4%
COc1ccc(NS(=O)(=O)c2coc(C(N)=O)c2)cc1Cl	i	-0.61	2.2%
Cc1sc2nc(SCc3nc4ccccc4[nH]3)n(Cc3ccco3)c(=O)c2c1C	i	-0.55	-25.4%
COc1cccc(/C=C/C(=O)c2c(O)cc(C)oc2=O)c1O	i	x	-7.0%
CC(C)(C)c1ccc(C(=O)NCc2cccnc2)cc1	i	0.43	-0.9%
Cc1ccc(-c2nnn(CC(=O)N(CC(=O)NCc3ccccc3)c3cccc(C)c3C)n2)o1	i	0.8	-3.7%
CCOC(=O)c1oc2ccccc2c1CSc1nnnn1-c1ccc(OC)cc1	i	-0.19	-0.8%
CCCC(N)CCCCCC(=O)O (stereo unspecified)	i	-0.22	6.8%
COc1cc(OC)cc(C(=O)NCc2n[nH]c(=S)n2-c2ccccc2OC)c1	i	0.47	3.4%
O=S(=O)(NCc1ccccc1)c1cccc2nonc12	i	-0.67	3.9%
CC1(C)Oc2ccc3ccc(=O)oc3c2-c2cn[nH]c21	i	-0.1	-0.7%
O=C(NCC(=O)N(c1ccc2c(c1)OCO2)C(C(=O)NC1CCCC1)c1ccncc1)c1ccco1 (stereo unspecified)	i	-0.59	-8.9%
CCOC(=O)C1C(C)=CC(=O)CC1c1ccco1 (stereo unspecified)	i	0.13	-7.3%
CCCCN1C(=O)C(NC(C)=O)c2cc(Br)ccc21 (stereo unspecified)	i	-1.16	-1.0%
Cc1nn(C)cc1/C=C/C(=O)c1cccs1	i	x	4.0%
COCCOC(=O)C1=C(C)NC(=O)NC1c1ccc(OC(=O)c2ccco2)c(OC)c1 (stereo unspecified)	i	-0.16	2.4%
Cc1ccc(-c2nc(CS(=O)(=O)CC(=O)NCCCN3CCN(C)CC3)c(C)o2)cc1	i	0.04	2.0%
CCOC(=O)C(=CNc1cc(C)nn1-c1ccccc1)C(=O)OCC	i	x	3.9%
N#C/C(=C\c1ccc(O)c(O)c1)C(=O)NCCCc1ccccc1	i	-0.34	-0.9%
O=C(NCCOC(=O)c1ccc(C(=O)OCCNC(=O)c2ccccc2)o1)c1ccccc1	i	1.34	0.1%
O=S(=O)(c1cccc2cccnc12)N1CCc2ccccc21	i	-0.76	-2.2%
CCN1CCN(C(c2cc(OC)ccc2OC)c2nnnn2Cc2ccccc2)CC1 (stereo unspecified)	i	-0.37	0.2%
O=C1CC(c2ccc(F)cc2)Sc2ccccc2N1 (stereo unspecified)	i	0.43	0.0%
O=C(CSc1nnc(-c2cccs2)o1)N1CCCCC1	i	-0.05	0.1%
COc1cccc(C2=NOC(C(=O)Nc3ccc(OC)c(OC)c3)C2)c1 (stereo unspecified)	i	-0.76	-4.4%
Cc1sc2nc(C(C)Nc3ccccc3N3CCOCC3)[nH]c(=O)c2c1C (stereo unspecified)	i	-0.54	-22.1%
COn1c(SCc2cccnc2)nc2ccccc2c1=O	i	0.26	-6.5%
CCOC(=O)CSc1nn(C)c(=S)s1	i	-0.09	-1.0%
COc1ccccc1NS(=O)(=O)c1cc(Cl)ccc1OC	i	0.46	3.7%
O=C(Nc1cnc2ccccc2c1)N1CCOCC1	i	-0.77	3.8%
COC(=O)c1ccc(=O)n(Cc2ccc3c(c2)OCO3)c1	i	0.06	0.6%
COc1cc(C)nc(N2CCC(C(=O)NC3CCCCC3)CC2)n1	i	-0.8	-0.9%
COc1ccccc1NC(=O)C1CCCN(c2cc(C)nc3ncnn23)C1 (stereo unspecified)	i	x	6.3%
CN(C)c1cc(=O)n2c(n1)SCCC2	i	x	-3.1%
Cn1c(SCC(=O)Nc2ccccc2F)nnc1-c1cc2ccccc2o1	i	x	1.6%
Cc1ccc(P(C)(=O)c2ccc(C)cc2)cc1	i	x	6.6%
O=C1C2CCCN2C(c2ccc(Br)cc2)N1c1ccc(F)cc1 (stereo unspecified)	i	0.37	3.2%
O=C(Nc1ccc(N2CCOCC2)cc1)C1CC1	i	-0.2	-10.2%
Cc1oc(-c2nc3ccccc3n2C)cc1C(=O)c1ccccc1	+	-0.55	5.1%
CCCc1cc(Nc2ccccc2OCC)n2ncnc2n1	i	x	1.6%
Cn1cnnc1Sc1nc2c(c(=O)n(C)c(=O)n2C)n1C	i	0.54	-0.2%
Cc1n[nH]c(C)c1S(=O)(=O)N1CCc2ccccc21	i	0.87	-1.0%
O=C(CN1C(=O)CSc2ncccc21)NCCN1CCOCC1	i	-0.31	4.4%
Cc1ccc2sc(NC(=O)CN3C(=O)CCC3=O)nc2c1C	i	1.43	-0.1%
CC1CCCC(C)N1C(=O)CN1CCN(c2nc(-c3ccc(F)cc3)cs2)CC1 (stereo unspecified)	i	-2.38	0.6%
Cc1ccc(C)c2[nH]c(=O)c(C(c3nnnn3Cc3ccccc3)N3CCc4ccccc4C3)cc12 (stereo unspecified)	i	x	-1.4%
Cc1nc2cc(C(F)(F)F)ccc2n1C1CCN(CC(=O)NC(C)(C)C)CC1	i	2.12	0.0%
CCOc1ccc(-n2c(=O)c3c(C)c(C)sc3n(CC(=O)NCc3ccco3)c2=O)cc1	i	0.67	9.4%

Structural class, the compounds so far containing a tert-butyl group
SMILES	MT1-MMP promoter	WNV NS2B-NS3 inh	Hsc70
CC(C)(C)c1ccc(C(=O)NCc2cccnc2)cc1	i	0.43	-0.9%
Cc1nc2cc(C(F)(F)F)ccc2n1C1CCN(CC(=O)NC(C)(C)C)CC1	i	2.12	0.0%

Some values from above.
WNV NS2B-NS3 inh with Cc1n[nH]c(C)c1S(=O)(=O)N1CCc2ccccc21 reads 0.87
WNV NS2B-NS3 inh with O=S(=O)(c1cccc2cccnc12)N1CCc2ccccc21 reads -0.76
Hsc70 with COc1ccccc1NS(=O)(=O)c1cc(Cl)ccc1OC reads 3.7%
Hsc70 with O=C1CC(c2ccc(F)cc2)Sc2ccccc2N1 (stereo unspecified) reads 0.0%

Next compounds follow:
SMILES	MT1-MMP promoter	WNV NS2B-NS3 inh	Hsc70
Cc1ccc(-c2nnc(SCC(=O)Nc3ccccc3N3CCOCC3)o2)cc1	i	0.12	3.0%
CSc1nnc(-c2ccncc2)n1CCCN1CCCC1=O	i	2.12	4.9%
CC1=C(C(=O)Nc2ccccc2Cl)C(c2ccc(N(C)C)cc2)NC(=O)N1 (stereo unspecified)	i	-0.35	-24.1%
CCOC(=O)c1ccccc1NC(=O)CN(c1ccccc1OCC)S(C)(=O)=O	i	-0.54	1.0%
CCCCCC(C(=O)O)C(C)CC(=O)NC1CCCCC1 (stereo unspecified)	i	-0.15	2.2%
CSCCC(C(=O)N1C[C@]2(C)C[C@H]1CC(C)(C)C2)N1C(=O)c2ccccc2C1=O (stereo partly specified)	i	x	-1.6%
CCOC(=O)CSc1nnc([C@H](CC(C)C)NC(=O)OC(C)(C)C)o1	i	0.41	4.2%
CCCCN(C)C(=O)C(Cc1ccccc1)NS(=O)(=O)c1ccc2c(c1)CCC(=O)N2 (stereo unspecified)	i	-0.22	3.1%
COc1cc(C(=O)NCc2cn3ccsc3n2)cc(OC)c1OC	i	-0.53	-3.3%
COC(=O)CSc1nnc2n1C(C)(C)Cc1ccccc1-2	i	0.13	3.1%
CCN(CC)CCn1c(NCc2ccc(C)o2)nc2ccccc21	i	x	0.7%
COCCCn1c(=S)[nH]c2ccc(N3CCOCC3)cc2c1=O	i	1.56	2.8%
CCc1ccc2[nH]c(=O)c(C(c3nnnn3Cc3ccc(OC)cc3)N3CCOCC3)cc2c1 (stereo unspecified)	i	0.51	-5.1%
N#CC(C(=O)NC1CC1)c1nc2ccccc2nc1N1CCN(C/C=C/c2ccccc2)CC1 (stereo unspecified)	i	-1.17	31.0%
CC(C)c1[nH]nc2c1C(c1cccs1)C(C#N)=C(N)O2 (stereo unspecified)	i	x	-1.5%
O=C(NCc1ccccc1)c1ccc2nc(-c3ccco3)c(-c3ccco3)nc2c1	i	x	-4.3%
CCOC(=O)c1c[nH]c2c(Cl)ccc(Cl)c2c1=O	i	1.91	-14.4%
CCOC(=O)c1sc(NC(=O)C2CC2)nc1C	i	-0.33	1.0%
COc1ccccc1C(=O)Nc1c(C)n(C)n(-c2ccccc2)c1=O	i	-0.86	9.1%
NS(=O)(=O)c1ccc(NC(=O)CCC2CCCCC2)cc1	i	-0.03	5.3%
O=C(CCc1c[nH]c2ccccc12)NCc1ccc2c(c1)OCO2	i	x	0.9%
CCOC(=O)C(NC(=O)CC)(N1CCc2ccccc2C1)C(F)(F)F (stereo unspecified)	i	x	1.6%
CCn1c(SCC(=O)Nc2cccc(C)n2)nnc1-c1ccco1	i	-0.13	-0.9%
CC(=C/c1ccccc1)/C=N/n1cnnc1	i	x	-4.1%
O=C(CN(C(=O)CCC(=O)Nc1nccs1)c1ccc2c(c1)OCO2)NCC1CCCO1 (stereo unspecified)	i	0.64	2.1%
CC(C)(C)n1nnnc1C(c1ccc2ncccc2c1)N1CCSCC1 (stereo unspecified)	i	0.16	1.0%
COc1ccc(NC(=O)N2CCN(CCC#N)CC2)cc1	i	x	-2.7%
COc1ccc(N(Cc2cc3cc(OC)ccc3[nH]c2=O)S(C)(=O)=O)cc1	i	0.18	-2.3%
O=C(NC12CC3CC(CC(C3)C1)C2)N1CCC(O)CC1	i	-0.73	1.8%
Cc1cc(C(=O)NCCCc2ccccc2)no1	i	0.24	1.0%
COC(=O)c1ccc(CSc2nnc(NC(=O)c3cc4c(s3)CCCC4)s2)cc1	i	x	-13.7%
CCOC(=O)CCn1nnc(N)n1	i	-0.58	1.9%
COc1ccc(OC)c(C2C(C(=O)c3cc4ccccc4o3)=C(O)C(=O)N2c2cc(C)on2)c1 (stereo unspecified)	i	-0.05	-2.6%
CCC(C)(C)n1nnnc1C(c1ccccn1)N1CCOCC1 (stereo unspecified)	i	-0.96	6.0%
O=C(CCC(=O)OCCCC(F)(F)C(F)(F)F)Nc1ccc(Cl)cc1Cl	i	x	-3.1%
Cc1ccc(CNC(=O)CN2C(=O)COc3ccc(C)cc32)cc1	i	-1.44	-0.9%
COc1ccc(S(=O)(=O)Cc2ccc(C(=O)N3CCN(c4ccccn4)CC3)o2)cc1	i	-0.57	-5.1%
Cc1cc2c(=O)n(CC(=O)N3CCN(c4ccc(F)cc4)CC3)cnc2s1	i	-0.11	0.1%
Cn1c(C(=O)N2CCCC(C(=O)NCCCSC3CCCCC3)C2)cc2sccc21 (stereo unspecified)	i	-0.55	-10.5%
CCn1c(NC(=O)c2cccc(Cn3cc(Cl)cn3)c2)nc2ccccc21	i	-0.27	-0.9%
Cc1nn(C)c(C)c1S(=O)(=O)Nc1ccc2c(c1)OCO2	i	2.25	-2.3%
COC(=O)COn1c(SCC(=O)OC)nc2ccccc2c1=O	i	0.61	-0.3%
CCOC(=O)CC(=O)CSc1nc(-c2cccnc2)ccc1C#N	i	0.86	-14.3%
CC(C)c1ccc(O)c(N)c1	i	-0.72	-6.3%
Clc1ccc(-c2nn3c(-c4ccccc4)nnc3s2)cc1	i	0.17	-10.0%
CC(=O)Nc1ccc(C(=O)CSc2nnc(Cn3nnc4ccccc43)n2C)cc1	i	-0.25	2.5%
Cc1c(N=Cc2c(O)n(Cc3ccco3)c(=O)c3ccccc23)c(=O)n(-c2ccccc2)n1C	i	0.73	0.2%&-0.6%
CCOC(=O)c1sc(NC(=O)CSc2n[nH]c(-c3ccccc3)n2)c(C#N)c1C	i	-0.61	-3.1%
CCOC(=O)N1CCN(C(c2ccc(C)cc2)c2sc3nc(C)nn3c2O)CC1 (stereo unspecified)	i	-1.05	-0.6%
CC(C)(C)OC(=O)N1CCCC(C(=O)CC#N)C1 (stereo unspecified)	i	-1.36	-4.2%

Entries listed so far that have a CF3 group (3):
SMILES	MT1-MMP promoter	WNV NS2B-NS3 inh	Hsc70
Cc1nc2cc(C(F)(F)F)ccc2n1C1CCN(CC(=O)NC(C)(C)C)CC1	i	2.12	0.0%
CCOC(=O)C(NC(=O)CC)(N1CCc2ccccc2C1)C(F)(F)F (stereo unspecified)	i	x	1.6%
O=C(CCC(=O)OCCCC(F)(F)C(F)(F)F)Nc1ccc(Cl)cc1Cl	i	x	-3.1%
